Bm FixLJ act: activators of Burkholderia fixLJ two-component system, primary screen, B. multivorans, GFP reporter; AID 1918990, 2023; z-score (test concentration not listed); B. multivorans fixK-promoter GFP reporter, 18 h; stronger effect = higher value; actives 0.3% (n = 29,000);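 active means replicate mean overnight rise in green fluorescent reporter signal, 3 or more SD over negative controls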;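 further: score is relative to vehicle wells of the plate; 300 nL library stock went into each well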
* hit, by the source's call. This is a subset (hit frequency here may not be typical).

The opening 2 entries, ahead of the listing:
SMILES | Bm FixLJ act
CCCCN(Cc1ccccc1)C(=O)NCCc1cnc[nH]1 | 2.3
CCOc1ccccc1CNCCSc1nnnn1C | -1.6

The listing, from the start:
SMILES | Bm FixLJ act
CCCCN(Cc1ccccc1)C(=O)NCCc1cnc[nH]1 | 2.3
CCOc1ccccc1CNCCSc1nnnn1C | -1.6
Cc1cc(=O)n2nc(N3CCC(C(=O)Nc4ccc(C(C)C)cc4)CC3)sc2n1 | -2.2
CC12CN3CC(c4ccccc4)(CN(C1)C3c1ccc(Cl)cc1)C2=O (stereo not drawn) | -1.5
Clc1ccc2c(c1)-c1c(cnc3cc(-c4ccccc4)nn13)CO2 | -0.24
CC(=O)NCc1cc2n(n1)CCN(C(=O)c1c[nH]c(=O)c3ccccc13)C2 | 0.07
O=C(Cn1c(=O)n(CC2CCC(C(=O)NCCc3ccccc3)CC2)c(=O)c2ccccc21)Nc1ccccc1 (stereo not drawn) | 2
COc1ccc(Nc2cc(C(=O)NCCc3ccc(C)cc3)c3ccccc3n2)c(OC)c1 | -0.96
CCN1CC(NC(=O)c2cc(C)nc3c(C)c(C)ccc23)C(OC)C1 (stereo not drawn) | 0.77
COc1ccc(N(CC(=O)NCc2ccccc2Cl)S(=O)(=O)c2c(C)nn(C)c2C)cc1 | -1.8
COCCCNC(=O)C1CCN(c2nnc(-n3cccc3CNc3ccc(C)cc3)s2)CC1 | -1
Cc1ccc(CNC(=O)c2nnc(Cc3ccc(Cl)cc3)o2)cc1 | 0.32
COc1ccccc1NC(=O)c1cnn(-c2ccccc2)c1-n1cccc1 | -0.05
Oc1ccc(Cl)cc1Nc1nc2ccccc2n2cnnc12 | -2.2
COc1ccc(Oc2nc3c(c(=O)n(C)c(=O)n3C)n2Cc2ccccc2Cl)cc1 | -1.2
CCc1cccc(C)c1Nc1c(-c2cccc(O)c2)nc2cnccn12 | 0.34
CCC(C)n1c(=N)c(C(=O)NCc2ccccc2)cc2c(=O)n3cc(C)ccc3nc21 (stereo not drawn) | -1.7
CCn1cc(C(=O)NCCCN2CCC(C)CC2)c(=O)c2cc(S(=O)(=O)N(C)C3CCCCC3)ccc21 | -2.1
O=C(NC1CCCC1OCc1ccccc1)c1ccccc1N1CCOCC1 (stereo not drawn) | 1
O=c1[nH]c2ccccc2n1CCCN1CCN(C(c2ccccc2)c2ccccc2)CC1 | -1.7
O=C(NCc1cnc2cnccn12)C1CCC(=O)N(C2CCCC2)C1 (stereo not drawn) | -1.4
CCC1(CC)CC1C(=O)N1CCCN(C(=O)C2CC(=O)C2)CC1 (stereo not drawn) | -2.1
CCCN(C(=O)c1cc2n(n1)CC(O)CNC2=O)C1CCCC1 (stereo not drawn) | -1.7
Cc1oc(-c2cc(C(F)(F)F)on2)cc1S(=O)(=O)N1CCC(N)CC1 | 0.23
Cc1ccc(CCNC(=O)c2ccc3c(c2)N(Cc2cccc(C)c2)C(=O)c2ccccc2S3(=O)=O)cc1 | -0.23
Cc1cc(NCc2ccccc2Cl)n2cnnc2n1 | -2.5
COc1ccc(-n2nc(C(=O)N3CCC(C)CC3)c3c4ccccc4n(C)c3c2=O)cc1Cl | -1.5
COc1ccc(CCn2nc(C(=O)O)c3c2CCN(C(=O)C2CCOCC2)C3)cc1 | -0.93
CCCN(CCC)CCCNC(=O)C1CCN(c2nc3ccc(CC)cc3s2)CC1 | -0.99
Cc1c2cnn(CC(=O)NCc3ccc(F)cc3)c(=O)c2c(C)n1Cc1ccccc1Cl | -1.9

Fetched one by one from above (4):
SMILES | Bm FixLJ act
Cc1c2cnn(CC(=O)NCc3ccc(F)cc3)c(=O)c2c(C)n1Cc1ccccc1Cl | -1.9
Cc1cc(NCc2ccccc2Cl)n2cnnc2n1 | -2.5
COc1ccc(-n2nc(C(=O)N3CCC(C)CC3)c3c4ccccc4n(C)c3c2=O)cc1Cl | -1.5
O=c1[nH]c2ccccc2n1CCCN1CCN(C(c2ccccc2)c2ccccc2)CC1 | -1.7

(more compounds)
SMILES | Bm FixLJ act
CN(Cc1ccon1)C(=O)NC1CCN(C2CCOCC2)CC1 | -0.44
CCc1ccc(NC(=O)CN(c2ccc(C)cc2)S(=O)(=O)c2cccs2)cc1 | 0.2
CCc1ccc2oc(C(=O)Nc3cc(Cl)ccc3OC)cc(=O)c2c1 | -1.6
Cc1ncsc1CCC(=O)NC1CCN(c2cc(=O)[nH]c(N)n2)CC1 | 0.11
COc1cc(NS(=O)(=O)c2ccc(NC(=O)c3cccc(F)c3)cc2)nc(OC)n1 | 0.3
CCOc1ccccc1NC(=O)Cn1c(=O)n(Cc2cccs2)c(=O)c2cccnc21 | -1.7
O=C(C1CCCC1)N1CCC[C@]2(C1)CN(c1ncc(F)cn1)CCC2O (stereo partly drawn) | -0.3
COc1ccc(NC(=O)Cn2c(=O)n(-c3cccc(C(F)(F)F)c3)c(=O)c3sccc32)cc1 | -2
C#CCOc1cc(C(=O)N2CC[C@@]3(C(=O)O)CCCN(C)[C@H]3C2)ccc1OC | 0.48
Cc1cc(C)cc(NC(=O)C(Cc2ccccc2)NS(=O)(=O)c2ccc3c(c2)c(=O)n(C)c(=O)n3C)c1 (stereo not drawn) | -1.2
Cc1cc(C)n(C2CN(C(=O)c3nccnc3C(=O)N3CCCCC3)C2)n1 | 0.18
Cc1ccc(Sc2c(C)nn(C(=O)COc3ccc(F)cc3)c2C)cc1 | -0.69
O=C(c1cc2sccc2[nH]1)N1CCN(S(=O)(=O)N2CCCC2)CC1 | 2.3
Cc1ccc(-c2ccnc(N3CCCC(CCCO)C3)n2)c(C)n1 (stereo not drawn) | -4.3
Nc1ccc(S(=O)(=O)Nc2ccc(Cl)nn2)cc1 | -1.2
CCOc1ccc(S(=O)(=O)c2cn(Cc3ccccc3C)c3ccc(OC)cc3c2=O)cc1 | 1
Cc1ccc(NC(=O)CCSc2nc(-c3ccc4c(c3)OCO4)cc(C(F)(F)F)n2)c(C)c1 | -0.23
O=C(CSc1ccncc1)NC1CCOCC1Oc1cccc(F)c1 (stereo not drawn) | -0.58
Cc1ccc2c(CN3CCN(c4ccc(Cl)cc4)CC3)cc(=O)oc2c1 | -0.29
CCSc1ncc(Cl)c(C(=O)Nc2nnc(CC)s2)n1 | -1
Cc1c(C(=O)OC(C)C)sc(NC(=O)C2c3ccccc3Oc3ccccc32)c1C(=O)OC(C)C | -2.6
CSc1cccc(Nc2cc(C(=O)NCCc3ccc(Cl)cc3)c3ccccc3n2)c1 | 2
Cc1ccc(-c2nc3cc(C(C)C)ccc3o2)cc1NC(=O)c1cc2ccccc2o1 | -1.1
COc1cccc(Nc2nc3ccc(C)cc3nc2-n2nc(C)cc2C)c1 | 0.57
CCOC(=O)c1c(-c2ccccc2)oc2ccc(OCc3cccc(Br)c3)cc12 | -0.94
COc1ccc(S(=O)(=O)NCc2ccc(C(=O)NCc3ccccc3)cc2)cc1 | -1.3
COc1cccc(NC(=O)CC2Oc3ccccc3NC2=O)c1 (stereo not drawn) | -0.25
CCOC(=O)c1c(NC(=O)c2ccc(OC)cc2)sc2c1CCCCC2 | -0.97
Cc1nc(N2CCCC2)nc(NC2COCC2Cc2ccncc2)c1C (stereo not drawn) | -0.82
Cn1c(=O)c2sccc2n2c(CCC(=O)NCc3ccccc3)nnc12 | 2.4

Sorted by formula weight (low to high): some entries from above.
SMILES | Bm FixLJ act
COc1cccc(NC(=O)CC2Oc3ccccc3NC2=O)c1 (stereo not drawn) | -0.25
CC12CN3CC(c4ccccc4)(CN(C1)C3c1ccc(Cl)cc1)C2=O (stereo not drawn) | -1.5
Cc1ncsc1CCC(=O)NC1CCN(c2cc(=O)[nH]c(N)n2)CC1 | 0.11
CCOC(=O)c1c(NC(=O)c2ccc(OC)cc2)sc2c1CCCCC2 | -0.97
CCc1ccc(NC(=O)CN(c2ccc(C)cc2)S(=O)(=O)c2cccs2)cc1 | 0.2
Cc1c2cnn(CC(=O)NCc3ccc(F)cc3)c(=O)c2c(C)n1Cc1ccccc1Cl | -1.9
O=C(Cn1c(=O)n(CC2CCC(C(=O)NCCc3ccccc3)CC2)c(=O)c2ccccc21)Nc1ccccc1 (stereo not drawn) | 2

Remaining list, next part
SMILES | Bm FixLJ act
Cc1nccn1CC1CCN(CCC(=O)Nc2ccsc2C(=O)O)CC1 | 0.31
CC(=O)N1CCc2c(nc(C)nc2N2CCC(O)(CN(C)C)CC2)C1 | -1.9
COc1ccccc1CNC(=O)CCCn1c(=O)c2ccccc2n(Cc2ccc(F)cc2)c1=O | 0.66
COc1ccc(C2CC(=O)c3c([nH]c(C(=O)OC4CCCCCC4)c3C)C2)cc1 (stereo not drawn) | -0.17
COc1ccc2c(c1)NC(c1cccnc1)=NC(c1ccc(F)cc1)=N2 | -2.3
O=C(CNc1cccnc1)NCc1nnnn1-c1ccccc1 | 1.1
Cn1ccnc1C(O)C1CCN(C(=O)CCn2cnc3ccccc32)CC1 (stereo not drawn) | -0.13
COc1ccc(OC)c(C(C)NC(=O)c2ccccc2-c2nn[nH]n2)c1 (stereo not drawn) | -1.3
Nc1nn(-c2ccccc2)nc1C(=O)OCc1ccccc1 | -2.7
CN(C)c1ncnc2c1CCN(C(=O)Cc1cn3ccsc3n1)C2 | -1.1
Cc1cccc(Cn2c(C)c(CNC3CCCCC3)c(C(=O)O)c2C)c1 | -1.9
CCN(C(=O)C(=O)Nc1ccc2nc3n(c(=O)c2c1)CCCCC3)c1ccc(F)cc1 | -3.2
N[C@H](Cc1cc(I)c(Oc2ccc(O)c(I)c2)c(I)c1)C(=O)O | 0.06
Cc1nc2nc(NCc3ccc(Br)cc3)[nH]n2c(=O)c1Cc1ccccc1 | -3.5
COc1ccccc1NC(=O)CN1C(=O)CCSc2ccccc21 | 0.46
COc1ccc2c(c1)CCOC21CCN(C(=O)CC2C(=O)NCCN2C(C)C)CC1 (stereo not drawn) | 0.34
CCCC12CN3CC(C)(CN(C1)C3c1cn(C)c3ccccc13)C2=O (stereo not drawn) | -0.2
CCSc1ncc(-c2nccn2C(C)c2ccco2)cn1 (stereo not drawn) | 0.05
COc1ccc(-c2nc(SCC(=O)NC3CCCC3)c(-c3ccccc3)[nH]2)cc1OC | -0.77
Nc1n[nH]c(CCNC(=O)c2cn[nH]c2C2CCCCC2)n1 | -1.6
Cc1cc(C)cc(NC(=O)CSc2nc3c(oc4ccccc43)c(=O)n2-c2ccccc2F)c1 | -1.3
Cc1ccc(NC(=O)CC(=O)NCCC2COc3ccccc3O2)cc1 (stereo not drawn) | -0.96
Cc1cc(C)c(NC(=O)Cn2c(=O)n(CC3CCCO3)c(=O)c3ccccc32)c(C)c1 (stereo not drawn) | -2.3
COc1cccc(Cn2c(=O)n(-c3ccc(C)c(F)c3)c(=O)c3sc4ccccc4c32)c1 | -0.66
O=C(/C=C/c1ccco1)Nc1ccc(Cl)c(-c2nc3cc(Cl)ccc3o2)c1 | -0.53
CCCC(NC(=O)c1cccc2c(C)c(C)[nH]c12)c1nccn1C (stereo not drawn) | -0.68
Cc1n[nH]c(C)c1S(=O)(=O)N(CC(=O)Nc1ccc(C(F)(F)F)cc1)c1ccc(C(C)C)cc1 | -1.1
COC(=O)C1=C(c2ccccc2)c2ccccc2S(=O)(=O)N1CC(=O)Nc1ccccc1C(F)(F)F | -0.36
CCc1cc2c(cc3c(=O)n(CC(=O)N4CCN(c5cccc(C)c5C)CC4)nc(CC)n32)s1 | -1.7
NCC(CC(=O)O)c1ccc(Cl)cc1 (stereo not drawn) | -1.7
O=C(Nc1cccc(-c2nc3ccccc3o2)c1)c1cccc2c(Cl)cccc12 | -3
Cc1nn(C)c(C)c1CN(Cc1[nH]cc(C)c(=O)c1C)C1CC1 | 2
CC(C)CCOc1ccc(CCNC(=O)c2cc(N)n[nH]2)cc1 | -0.29
COc1ccc(-c2cc(C(F)F)n3ncc(C(=O)Nc4cc(OC)ccc4OC)c3n2)cc1 | -1.7
Cc1ccc(-c2nnn3c2nc(N2CCC(C)CC2)c2ccccc23)cc1 | -1.4
COCC(NC(=O)CSc1nc2ccc(C)cc2[nH]1)c1ccnn1C (stereo not drawn) | -0.44
COc1cccc(CNC(=O)C2CCN(C(=O)c3sccc3-n3cccc3)CC2)c1 | -1.8
COc1ccc(-c2nc(CN3CCC(C(=O)NCCCOC(C)C)CC3)c(C)o2)cc1OC | -1.7
Brc1ccc2c(c1)NC(c1cccnc1)=NC(c1ccccc1)=N2 | 1.5
CCOC(=O)c1cccc(NC(=O)c2cc(-c3ccc(Cl)s3)nc3ccccc23)c1 | 0.3
CCCCn1c(CCCNC(=O)c2cccc(C)c2)nc2ccccc21 | -2.2
COc1cc(C(=O)Nc2ccc3nn(-c4ccc(F)cc4)nc3c2)cc(OC)c1OC | -0.28
CC(=O)OC(C)C[N+](C)(C)C (stereo not drawn) | -1.8
Cn1c(Oc2ccc(F)cc2)nc2c1c(=O)n(Cc1ccccc1Cl)c(=O)n2C | -1.9
Cc1ccc(C(=O)CC2(O)C(=O)N(CCc3ccccc3)c3ccc(Br)cc32)cc1 (stereo not drawn) | 0.68
CCOc1ccc(N(CC(=O)NCc2ccc(OC)cc2)S(=O)(=O)c2c(C)[nH]c(=O)[nH]c2=O)cc1 | -0.05
Cc1ccc(C)c(C(=O)c2c(N)c(-c3nc(-c4ccc5c(c4)OCO5)cs3)c3ccccn23)c1 | -1.1
Cc1ccc(-c2ccc(F)c(C(N)=O)c2)c(-n2nc(C)cc2C)c1 | -0.14
Cc1ccc(SC(C)C(=O)NCc2nc3ccccc3c(=O)[nH]2)cc1 (stereo not drawn) | -1
CCCN(Cc1ccc(SC)cc1)C(=O)NCc1nc(N)n[nH]1 | -1.1
COc1ccc(CCNC(=O)CCCCCn2c(=O)[nH]c3cc(OC)c(OC)cc3c2=O)cc1OC | -0.16
COc1ccc(OC)c(NC(=O)C(Cc2ccccc2)NS(=O)(=O)c2ccc3c(c2)CCC(=O)N3)c1 (stereo not drawn) | -0.11
COc1ccc(S(=O)(=O)N(CC(=O)Nc2cc(Cl)ccc2C)Cc2ccccc2)cc1OC | 1.9
Cn1c(C(=O)N2CCCC(C(=O)N3CCN(c4ccccc4)CC3)C2)cc2sccc21 (stereo not drawn) | -1.8

Look-ups from above:
CCCCN(Cc1ccccc1)C(=O)NCCc1cnc[nH]1 – Bm FixLJ act: 2.3
Clc1ccc2c(c1)-c1c(cnc3cc(-c4ccccc4)nn13)CO2 – Bm FixLJ act: -0.24
